KCNQ2 inh – KCNQ2 potassium channel inhibitors, primary screen, cell-based, CHO-K1, FluxOR thallium flux, B-score (AID 2156). O88943. 310,000 compounds, 1.1% hits. B-score at 10 µM. 20 min; hits give low values; only compounds with negative scores are shown here; some inactives read as strong as hits;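 active = fluorescence ratio B-score at most minus 3 library SDs, with starting brightness B-score within 2 library SDs, cut at about -5.5 in these data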
Target sequence (O88943 whole entry, looked up): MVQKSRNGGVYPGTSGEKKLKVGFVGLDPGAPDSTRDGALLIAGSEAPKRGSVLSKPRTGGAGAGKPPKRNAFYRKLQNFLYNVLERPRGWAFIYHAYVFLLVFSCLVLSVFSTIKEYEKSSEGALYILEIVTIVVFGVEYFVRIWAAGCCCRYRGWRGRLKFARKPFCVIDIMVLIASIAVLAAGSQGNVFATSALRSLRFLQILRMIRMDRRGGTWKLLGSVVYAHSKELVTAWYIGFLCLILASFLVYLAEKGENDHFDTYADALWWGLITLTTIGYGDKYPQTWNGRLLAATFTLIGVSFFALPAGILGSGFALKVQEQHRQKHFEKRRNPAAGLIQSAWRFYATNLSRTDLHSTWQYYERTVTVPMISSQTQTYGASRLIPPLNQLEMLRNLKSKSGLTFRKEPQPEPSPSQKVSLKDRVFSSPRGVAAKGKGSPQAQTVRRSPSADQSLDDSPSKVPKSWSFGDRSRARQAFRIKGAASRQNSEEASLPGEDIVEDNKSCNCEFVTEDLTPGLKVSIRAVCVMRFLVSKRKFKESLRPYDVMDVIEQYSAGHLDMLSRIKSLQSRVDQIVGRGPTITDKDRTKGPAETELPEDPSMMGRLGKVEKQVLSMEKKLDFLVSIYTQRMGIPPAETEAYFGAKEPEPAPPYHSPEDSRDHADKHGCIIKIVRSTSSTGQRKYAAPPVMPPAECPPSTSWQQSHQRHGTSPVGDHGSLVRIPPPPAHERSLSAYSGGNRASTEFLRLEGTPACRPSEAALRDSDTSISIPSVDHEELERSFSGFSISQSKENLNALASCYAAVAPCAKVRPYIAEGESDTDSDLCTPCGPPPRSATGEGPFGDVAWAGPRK
KCNQ2 inh baseline – second read-out of KCNQ2 inh, no call of its own (marks repeat the call); B-score; measured here: initial fluorescence intensity artifact check;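 brightness before thallium and not channel activity; 0 = typical well and far values either way flag optical interference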
* marks the source's active call; other numbers are inactive results; i = inactive. A portion of the library (hit frequency here may not be typical).

Start of the listing, in advance, 2 compounds:
Values in the order: KCNQ2 inh | KCNQ2 inh baseline
- CC1(C)SC2c3ccccc3C(=O)N2[C@@H]1C(=O)NC1CCCC1 (stereo partly drawn)
→ i | -1.5
- Cc1c(C(=O)N(Cc2ccccc2Cl)C2CCS(=O)(=O)C2)oc2ccccc12 (stereo not drawn)
→ i | -0.5

All compounds of this part, previewed entries included:
Values in the order: KCNQ2 inh | KCNQ2 inh baseline
- CC1(C)SC2c3ccccc3C(=O)N2[C@@H]1C(=O)NC1CCCC1 (stereo partly drawn)
→ i | -1.5
- Cc1c(C(=O)N(Cc2ccccc2Cl)C2CCS(=O)(=O)C2)oc2ccccc12 (stereo not drawn)
→ i | -0.5
- Cc1nc2ccccn2c1CN(C)C(=O)C1CCC(=O)N(Cc2cccc(F)c2)C1 (stereo not drawn)
→ i | -0.24
- Cc1ccc(Oc2nc3c(c(=O)n(Cc4ccccc4F)c(=O)n3C)n2C)cc1
→ i | -0.1
- COc1ccc(C(=O)c2sc(Nc3ccccc3)nc2C)cc1
→ i | 0.01
- O=C(CN1C(=O)S/C(=C\c2ccc(F)cc2)C1=O)Nc1cccc(S(=O)(=O)NCc2ccco2)c1
→ i | -0.95
- CCc1oc(C(=O)OC)cc1CSC(=N)N
→ i | 0.36
- CC(C)C(=O)Nc1ccc(C(=O)NCc2cccnc2)cc1
→ i | 0.67
- O=C(Nc1ccc(Br)cc1)c1cnc[nH]1
→ i | 0.68
- CC(=O)c1sc(NC(=O)c2ccc3c(c2)OCO3)nc1C
→ i | 0.11
- Cn1c(=O)c2c(nc(Oc3ccccc3N)n2C)n(C)c1=O
→ i | -1.5
- O=C(CSc1nc2ccccc2s1)N1CCN(C(=O)c2ccco2)CC1
→ i | 0.6
- Cc1ccc(C(=O)Nc2ccc3c(c2)OCO3)cc1S(=O)(=O)N1CCCC1
→ i | 0.72
- Cn1c(=O)[nH]c(=O)c2c1nc1n2CCCS1
→ i | 1.3
- O=C(COC(=O)CCOc1ccccc1)NCCC1=CCCCC1
→ i | -0.73
- Cc1ccc(Cn2c(Cc3ccccc3)nc3ccccc32)cc1
→ i | 1.4
- CC(NC(=O)OCc1ccccc1)c1ccccc1 (stereo not drawn)
→ i | 0.36
- CCn1c(SCC(=O)c2ccc3ccccc3c2)nnc1-c1cccs1
→ i | -1.4
- O=C(Nc1ccccc1F)C1COc2ccccc2O1 (stereo not drawn)
→ i | -1.4
- CCc1ccc(NC(=O)CSc2nc(=O)n(CCCN(C)C)c3c2CCC3)cc1
→ i | 1.9
- Cc1cccc(C)c1OCC(O)CN(Cc1ccccc1O)C1CCCCC1 (stereo not drawn)
→ -8.4* | -0.98*
- O=C(NC1(C(F)(F)F)N=C2SCCN2C1=O)c1ccccc1 (stereo not drawn)
→ i | 0.9
- O=C(Nc1cccc(S(=O)(=O)N2CCCCC2)c1)c1ccccn1
→ i | -0.63
- CCOC(=O)c1cc2occc2n1CC(=O)N1CCOCC1
→ i | 1.5
- Cc1ccc(/C(N)=N/OC(=O)CSc2ccccc2)cc1
→ i | 1.6
- NNc1nc2ccccc2nc1C(F)(F)F
→ i | -0.39
- O=C(CSc1nc2ccccc2o1)N1c2ccccc2Sc2ccc(C(F)(F)F)cc21
→ i | 0.04
- COc1ccc(C(=O)Nc2ccc(NC(=O)c3cccc(F)c3)cn2)cc1
→ i | -0.7
- CSc1ccc(S(=O)(=O)NCc2ccc(Cl)cc2)cc1
→ i | 1.6
- COc1ccc(C(=O)[C@H]2[C@H]3C(=O)N(c4ccc(C)cc4)C(=O)[C@H]3C3C=CC=NN32)cc1 (stereo partly drawn)
→ i | 1.2
- CN(C)C(=O)C1CCC(=O)N1Cc1cccs1 (stereo not drawn)
→ i | 0.42
- CN1CCN(c2ncnc3sc(-c4ccccc4)cc23)CC1
→ i | 5.7
- O=C(Cc1ccc(Cl)c(Cl)c1)OCC(=O)c1ccc[nH]1
→ i | -0.95
- COC(=O)CCSCC(=O)Nc1nnc(C)s1
→ i | 3
- CC(CCc1ccccc1)NC(=O)C(=O)NCc1ccccc1 (stereo not drawn)
→ i | -1.5
- CC1CCCCN1S(=O)(=O)c1ccc(C(=O)Nc2nnc(-c3ccco3)o2)cc1 (stereo not drawn)
→ i | -0.42
- CCCn1c(SCC(=O)NC2CCCCC2)nnc1-c1ccccn1
→ i | 1.7
- Cc1occc1C(=O)N1CCC2(CCCN(Cc3ccc(F)c(F)c3)C2)C1 (stereo not drawn)
→ i | -0.56
- CC(=O)c1ccc2c(c1)OCCOCCOc1ccc(C(C)=O)cc1OCCOCCO2
→ i | 1.4
- CCOCCCNC(=O)C1CCCN1S(=O)(=O)c1ccc(Cl)cc1 (stereo not drawn)
→ i | 0.72
- C=CCOC(=O)C1=C[C@H](c2coc3ccccc3c2=O)C[C@H](OCc2ccc(CO)cc2)O1
→ i | -1.8
- Cc1cccc(/C=N/NC(=O)c2ccc(NC(=O)c3ccc(Cl)cc3)cc2)n1
→ i | 1.2
- Cc1cc(C)cc(CN2CCC(Oc3ccc(C(=O)N4CCCC4)cc3)CC2)c1
→ i | -0.65
- CCOC(=O)c1c(NC(C)=O)sc2c(OC)cccc12
→ i | 0.5
- Cc1noc(C)c1S(=O)(=O)N(Cc1ccccc1)C(C)C
→ i | 0.36
- COc1ccc(N2CCN(C(c3cc(OC)ccc3OC)c3nnnn3CC3CCCO3)CC2)cc1 (stereo not drawn)
→ i | -0.75
- Cc1nn(CC(=O)NCCCc2ccccc2)c(C)c1[N+](=O)[O-]
→ i | 1.3
- CCCCn1c(SCc2ccc(Cl)cc2)nc2c1c(=O)[nH]c(=O)n2C
→ i | 0.01
- N#C/C(=C/c1ccccc1OCc1ccc(F)cc1)c1ccc(C(=O)O)cc1
→ i | 1.9
- CCOc1ccc(C(C)(C)C)cc1S(=O)(=O)Nc1ccncc1
→ i | 3.1
- CC(=O)N1C(=O)N(C(C)=O)C2C1N(C)C(=O)N2C(C)=O (stereo not drawn)
→ i | 0.86
- Cc1ccc(Cl)cc1N(CC(=O)NCc1ccc2c(c1)OCO2)S(C)(=O)=O
→ i | 0.05
- O=C(/C=C/c1ccc(F)cc1)NCC1(c2ccccc2)CCOCC1
→ i | 0.8
- COc1cccc(Oc2cnc(N)nc2-c2ccc(OC)cc2O)c1
→ i | 0.79
- COCCN(CC(=O)NC1CCCCC1)C(=O)/C=C/C(=O)c1ccc(OC)cc1O
→ i | -2
- CC(C)C(CCNC(=O)CC(Cc1ccccc1)c1ccco1)c1ccco1 (stereo not drawn)
→ -14* | -2.1*
- CC(C)CCOc1ccc(C(CC(N)=O)C(=O)O)cc1 (stereo not drawn)
→ i | 0.33
- Cc1nc2ccccc2c(-c2ccccc2)c1CC(=O)O
→ i | 0.02
- CCOc1ccc(CNC(=O)C2CCN(c3nn4c(=O)cc(C)nc4s3)CC2)cc1
→ i | -1
- O=C(CCN1CCN(c2ccccc2)CC1)NNC(=S)Nc1ccccc1Cl
→ i | 0.19

(more compounds)
Values in the order: KCNQ2 inh | KCNQ2 inh baseline
- COc1ccc(NC(=O)CNC(=O)N2CC(=O)Nc3ccccc32)cc1OC
→ i | 0.17
- Cc1ccc(OC(=O)CCNC(=O)c2ccccc2Cl)c(Br)c1
→ i | -1.1
- Cc1cc(=O)[nH]c(N)n1
→ i | 3
- COC(=O)c1ccc(COc2cccnc2[N+](=O)[O-])cc1
→ i | -0.69
- Cc1cccc2cc(CN(CC3CCCO3)C(=S)NCc3ccco3)c(=O)[nH]c12 (stereo not drawn)
→ i | 0.63
- COc1ccccc1NC(=O)N1CCCC1
→ i | -0.05
- N#Cc1nc(-c2cccs2)oc1NCc1ccccc1
→ i | 0.87
- Cc1cccc(OCCNC(=S)NC(=O)c2cccnc2)c1
→ i | 1.3
- COc1ccc(C(=O)NCC(=O)OCc2ccc(Br)cc2)cc1
→ i | 0.02
- Cc1ccc(NC(=O)NC2CCCCCCC2)cc1C
→ i | -1.6
- COc1ccc(S(=O)(=O)NCCSC(C)(C)C)cc1Cl
→ i | 1
- COc1cc(S(=O)(=O)N2CCN(Cc3ccccc3)CC2)ccc1Br
→ i | 1.2
- COc1ccc(S(=O)(=O)n2nc(OC(=O)c3ccccc3Br)cc2N)cc1
→ i | -0.06
- COC(=O)c1cccc(C(=O)N2CCCC(Nc3ccc4c(c3)OCCO4)C2)c1 (stereo not drawn)
→ i | 1
- COc1ccc(CNS(=O)(=O)c2ccc(NC(=O)N3CCCCC3)cc2)cc1
→ i | 0.09
- N#Cc1cn(-c2ccccc2)nc1-c1ccco1
→ i | -0.17
- O=C(OCC(=O)N1CCCC1=O)C1COc2ccccc2O1 (stereo not drawn)
→ i | 0.04
- CC(=O)OC(C(=O)NC1CCCCC1)c1ccncc1 (stereo not drawn)
→ i | 4
- Cc1ccc(NC(=O)C2CCCN(c3nccc(C)n3)C2)c(C)c1 (stereo not drawn)
→ i | 2.9
- Cc1ccc(Nc2ccc(S(=O)(=O)N3CCOCC3)cc2[N+](=O)[O-])c(C)c1
→ i | -0.04
- O=C1C2CCCN2c2ccc(S(=O)(=O)N3CCOCC3)cc2N1Cc1cccc(C(F)(F)F)c1 (stereo not drawn)
→ i | -1
- COc1cccc(NC(=S)/C(=C(\[O-])c2cc(C)n(-c3ccccc3F)c2C)[n+]2ccc(N(C)C)cc2)c1
→ i | 0.75
- CCCCc1c(O)nc(SCC(=O)N2CCOCC2)[nH]c1=O
→ i | 0.25
- COc1ccc(C(=O)Nc2cccc(C(=O)N3CCN(C)CC3)c2)cc1
→ i | 1.8
- CCOC(=O)C1CCN(C(=O)c2sc3nc(-c4ccc(F)cc4)cn3c2C)CC1
→ i | -0.03
- O=C(CSc1nnc(Cc2cc(=O)[nH]c(=O)[nH]2)n1-c1ccc(Cl)cc1)N1CCc2ccccc21
→ i | 0.45
- Nc1c(Cl)cc(-c2csc(NC(CO)c3nc4ccccc4n3CCOCCO)n2)cc1Cl (stereo not drawn)
→ i | -3.3
- Cc1ccc(S(=O)(=O)n2nc(OC(=O)c3cccc(F)c3)cc2N)cc1
→ i | -1.5
- S=c1[nH]c(-c2ccc(Br)cc2)cn1CCc1ccccc1
→ i | 2.4
- Cc1nc2ccc(NC(=O)CS(=O)(=O)c3ccc(F)cc3)cc2s1
→ i | 1.2
- O=c1[nH]nc(-c2ccc(F)cc2)cc1Cc1ccccn1
→ i | 1.3
- COC(=O)CN(C)C(=O)c1ccc2nc(Cc3cccc(Cl)c3)oc2c1
→ i | 1.8
- O=C(Cc1ccccc1)NCCCc1ccccc1
→ i | -0.86
- Cc1cc(Br)ccc1NC(=O)CN(C)C(=O)Cn1c(=O)cnc2ccccc21
→ i | 3.2
- COc1ccc2cc(/C=C/C(=O)c3ccco3)c(Cl)nc2c1
→ i | -0.36
- CC(=O)c1ccc(C(=O)NC2CCCN(Cc3ccccc3F)C2)s1 (stereo not drawn)
→ i | 0.28
- COc1ccc(CCC(=O)N2CCN(C3CCCCC3)CC2)cc1
→ i | 2.6
- CCC(C)NCCOc1cccc(Br)c1 (stereo not drawn)
→ i | 0.7
- CN(c1ccccc1)S(=O)(=O)c1cccc(C(=O)NNC(=O)c2ccccc2)c1
→ i | -0.51
- CC(=O)c1ccc(NC(=S)Nc2ccc3[nH]c(=O)[nH]c3c2)cc1
→ i | 1.6
- Cc1ccc(-c2nc(CS(=O)(=O)CC(=O)NCCN3CCCC3)c(C)o2)cc1
→ i | -0.41
- O=C(/C=C/c1ccc([N+](=O)[O-])cc1)c1cccs1
→ i | 2.2
- CCC(CC)C(=O)Nc1nnc(SCC(=O)NC2CCCCC2)s1
→ i | -1.3
- Cc1cc(NC(=O)CSc2nncc(=O)n2N)no1
→ i | 0.57
- Cc1c(C(=O)c2cccc(F)c2)c2ccccn2c1CCC#N
→ i | 3.6
- CSc1ccccc1OCc1cc(C(=O)N2CCC[C@H]2C(N)=O)no1
→ i | -0.03
- O=C(NCc1ccccn1)c1nnc(Cc2ccc(Cl)cc2)o1
→ i | -0.06
- CCN(CC)c1ccc(/C=N/NC(=S)NCc2ccco2)cc1
→ i | 1.4
- CC[N+](CC)(CC#Cc1ccccc1)CC(=O)c1ccc(Cl)cc1
→ i | 0.01
- Cc1ccc(OCC(=O)O/N=C(\N)c2ccccn2)cc1C
→ i | 0.63
- O=C(Cn1cc(/C=N/NC(=O)c2cccc(C(F)(F)F)c2)c2ccccc21)Nc1ccc(F)cc1
→ i | -1.1
- CCCNCC1C(Oc2ccc(Cl)cc2)C(=O)N1c1ccccc1C (stereo not drawn)
→ i | 0.64
- Cc1ccc(CCNC(=O)C2CC(=O)N(C3CCCCC3)C2)cc1 (stereo not drawn)
→ i | -1.6
- O=C1C=C(Nc2ccc(Cl)cc2)C(=O)N1c1ccc(Cl)cc1
→ i | 0.08
- Cc1cc(C)c2c(c1)NC(c1cc3c(cc1Br)OCO3)C1CC=CC21 (stereo not drawn)
→ i | 0.68
- Cc1cc(C(=O)Nc2sc(C)c(C)c2C#N)c(C)o1
→ i | 0.16
- O=C(OCCN1C(=O)CCC1=O)c1ccc(S(=O)(=O)N2CCCCC2)cc1
→ i | -0.04
- CN1CCN(S(=O)(=O)c2cccc(C(=O)N3CCc4ccccc43)c2)CC1
→ i | -1.6
- COc1ccc(S(=O)(=O)N2CCOCC2)cc1NC(=O)CSc1cccc[n+]1[O-]
→ i | 1.5
- CCC(CC)C(=O)Nc1cccc(C(=O)Nc2ccc(S(N)(=O)=O)cc2)c1
→ i | 0.12

(next part)
Values in the order: KCNQ2 inh | KCNQ2 inh baseline
- CCC(=O)c1ccc(OC(C)C(=O)NC2(C#N)CCCCC2)cc1 (stereo not drawn)
→ i | 2.2
- O=C(O)[C@H]1CCCC[C@H]1C(=O)NCCNC(=O)[C@@H]1CCCC[C@@H]1C(=O)O
→ i | 0.31
- CCOC(=O)C(C(=O)OCC)N(C#N)c1nc(SC)nc(N(C)C)n1
→ i | 0.64
- O=c1cc(O)nc(SCc2ccccc2)n1-c1ccc(F)cc1
→ i | -1.4

Single records (already shown). Values in the order: KCNQ2 inh	KCNQ2 inh baseline
Record of CCOC(=O)C(C(=O)OCC)N(C#N)c1nc(SC)nc(N(C)C)n1 → i	0.64
Record of CCC(=O)c1ccc(OC(C)C(=O)NC2(C#N)CCCCC2)cc1 (stereo not drawn) → i	2.2

Screening results as filed in PubChem BioAssay.
